High-throughput results as filed in PubChem.
Env fusion inh = blocks HIV Env-driven cell-cell fusion; inhibition, % at 12.3 µM; HeLa-JRFL Env/CEM21 cell fusion, luciferase; AID 651610; 360,000 compounds, 1.1% hits;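 active means mean replicate inhibition score of at least 50 and every replicate individually at or above 50; inconclusive means only one of the two criteria met; inactive means mean below 50 and not all replicates reaching 50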;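 further: 0% = plate neutral controls and 100% = maraviroc near 300 nM; one replicate is shown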
* hit, by the source's call; ? = inconclusive; [ ] = another dose, or the depositor's remark.

Env fusion inh,structure
9[16.7 µM],CCCNC(=O)Nc1ccc2c(c1)C(=O)N(C)C[C@H](OC)[C@H](C)CN(C(=O)CC)[C@H](C)CO2
-2[16.7 µM],CO[C@H]1CN(C)C(=O)c2cc(NC(=O)c3cccc(F)c3)ccc2OC[C@@H](C)N(C)C[C@@H]1C
13[16.7 µM],O=C(C[C@@H]1C[C@H]2c3cc(NC(=O)Nc4ccccc4F)ccc3O[C@H]2[C@@H](CO)O1)NC1CCCCC1
9[16.7 µM],Cc1ccc(NC(=O)C[C@H]2CC[C@H]3[C@@H](COc4ccc(NC(=O)C5CCC5)cc4C(=O)N3C)O2)cc1
24[16.7 µM],O=C(C[C@H]1C[C@@H]2c3cc(NC(=O)c4ccc5c(c4)OCO5)ccc3O[C@@H]2[C@H](CO)O1)NCc1ccc(Oc2ccccc2)cc1
4[16.7 µM],CO[C@H]1CN(C)C(=O)c2cc(NS(=O)(=O)c3cn(C)cn3)ccc2OC[C@@H](C)N(CCC(F)(F)F)C[C@H]1C
-11,O=C(C(=O)N1CCN(S(=O)(=O)c2ccc(F)cc2)CC1)c1cccc(C(F)(F)F)c1
6[16.7 µM],COCCNC(=O)[C@H]1[C@H](CO)[C@H]2Cn3c(ccc(-c4cccc(F)c4)c3=O)[C@@H]1N2C(=O)NC(C)C

Molecules from the list above with a CF3 group:
Env fusion inh,structure
4[16.7 µM],CO[C@H]1CN(C)C(=O)c2cc(NS(=O)(=O)c3cn(C)cn3)ccc2OC[C@@H](C)N(CCC(F)(F)F)C[C@H]1C
-11,O=C(C(=O)N1CCN(S(=O)(=O)c2ccc(F)cc2)CC1)c1cccc(C(F)(F)F)c1

New compounds follow:
Env fusion inh,structure
9[16.7 µM],Cc1ccccc1-c1cnc2c(c1)C(=O)N([C@@H](C)CO)C[C@H](C)[C@@H](CN(C)C(=O)CC1CC1)O2
13[16.7 µM],C[C@H](CO)N1C[C@H](C)[C@H](CN(C)S(=O)(=O)c2ccsc2)OCc2ccccc2-c2c(n(C)c3ccccc23)C1=O
59*,COC(=O)[C@]12C[C@H](CC(=O)NCCC(C)C)C(=O)N(CCC3=CCCCC3)C1=C[C@H](C(C)(C)C)O[C@@H]2C
-9[16.7 µM],CO[C@@H]1CN(C)C(=O)c2ccc(NC(C)=O)cc2OC[C@H](C)N(C(=O)c2ccccc2F)C[C@H]1C
-5[16.7 µM],C[C@H](CO)N1C[C@H](C)[C@H](CN(C)Cc2ccc(Oc3ccccc3)cc2)OCc2cnnn2CCCC1=O
-21[16.7 µM],CO[C@H]1CN(C)C(=O)c2ccc(NC(=O)C3CCOCC3)cc2OC[C@H](C)N(Cc2nccs2)C[C@@H]1C
-3[16.7 µM],CCCN1C[C@H](C)[C@H](OC)CN(C)C(=O)c2ccc(NS(=O)(=O)c3cn(C)cn3)cc2OC[C@H]1C
-11[16.7 µM],CNC[C@H]1Oc2ncc(Br)cc2C(=O)N([C@@H](C)CO)C[C@H]1C

Entries listed so far marked active in Env fusion inh:
Env fusion inh,structure
59*,COC(=O)[C@]12C[C@H](CC(=O)NCCC(C)C)C(=O)N(CCC3=CCCCC3)C1=C[C@H](C(C)(C)C)O[C@@H]2C

Other compounds follow.
Env fusion inh,structure
-5[16.7 µM],C[C@H]1CN([C@@H](C)CO)S(=O)(=O)c2ccc(C#CC3CCCC3)cc2O[C@@H]1CN(C)Cc1cncnc1
25,O=C(C(=O)N1CCC(CNS(=O)(=O)c2ccccc2OC(F)(F)F)CC1)c1cccs1
-2[16.7 µM],Cc1ccccc1-c1cnc2c(c1)C(=O)N([C@H](C)CO)C[C@@H](C)[C@@H](CN(C)C(=O)CC1CC1)O2
-10[16.7 µM],C[C@H](CO)N1C[C@H](C)[C@@H](CN(C)C)OCCCC[C@H](C)Oc2ccc(NS(=O)(=O)c3cn(C)cn3)cc2C1=O
45[16.7 µM],C[C@H]1CN([C@@H](C)CO)C(=O)c2c(c3ccccc3n2C)-c2ccccc2CO[C@@H]1CN(C)C(=O)NC1CCCCC1
6[16.7 µM],C[C@H]1CN([C@@H](C)CO)C(=O)Cc2cc(NS(=O)(=O)c3cn(C)cn3)ccc2O[C@H]1CN(C)Cc1ccc(-c2ccccc2)cc1
57*[16.7 µM],O=C(C[C@@H]1C=C[C@@H](NC(=O)c2ccccc2)[C@H](CO)O1)NCc1ccc(Oc2ccccc2)cc1
50[16.7 µM],Cc1noc(C)c1NC(=O)N(C)C[C@@H]1OCc2ccccc2-c2c(n(C)c3ccccc23)C(=O)N([C@H](C)CO)C[C@@H]1C
20[16.7 µM],O=C(Nc1ccc(Cl)c(Cl)c1)N[C@@H]1CC[C@H](CCNC(=O)c2ccc(F)cc2)O[C@H]1CO
1[16.7 µM],CCCN(C)C[C@H]1Oc2cc(C3=CCCC3)ccc2S(=O)(=O)N([C@H](C)CO)C[C@@H]1C
20[16.7 µM],CCCNC(=O)N1C[C@@H](C)[C@H](OC)CN(C)C(=O)c2ccc(NC(=O)C3CCC3)cc2OC[C@@H]1C
-33,NC(=O)c1ncn([C@@H]2O[C@H](C(=O)N[C@H](Cc3c[nH]c4ccccc34)C(=O)N3CCN(CC(=O)N4CCCC4)CC3)[C@@H](O)[C@H]2O)n1
8[16.7 µM],C[C@@H]1CN([C@H](C)CO)C(=O)c2ccccc2-c2ccccc2CO[C@H]1CN(C)C(=O)c1ccc(F)cc1
-7[16.7 µM],COC(=O)c1c(CC[C@@H](CO)NC(=O)N[C@H](Cn2cc(Cc3ccccc3)nn2)C(C)C)oc(C(C)=O)c1C(=O)OC
10[16.7 µM],COCCNC(=O)c1cc2c(c(-c3cccc(C#CCN(C)C)c3)n1)[C@H](CCO)N(S(=O)C(C)(C)C)C2 (some centres not stated)
-7[16.7 µM],COc1cccc(S(=O)(=O)N2C[C@H](O)COC[C@H]3O[C@H](CC(=O)N4CCN(c5ccccc5)CC4)CC[C@@H]32)c1

Quoted from the listing:
`Cc1ccccc1-c1cnc2c(c1)C(=O)N([C@H](C)CO)C[C@@H](C)[C@@H](CN(C)C(=O)CC1CC1)O2` in Env fusion inh is entered as -2[16.7 µM]
`COCCNC(=O)c1cc2c(c(-c3cccc(C#CCN(C)C)c3)n1)[C@H](CCO)N(S(=O)C(C)(C)C)C2` (some centres not stated) in Env fusion inh is entered as 10[16.7 µM]

The list goes on.
Env fusion inh,structure
22[16.7 µM],CO[C@H]1CN(C)C(=O)c2ccc(NC(=O)NC(C)C)cc2OC[C@@H](C)N(C(=O)CC2CC2)C[C@@H]1C
-6[16.7 µM],CO[C@@H]1CC[C@@H]2CCOc3c(C#N)cccc3C(=O)N(C)[C@H](C)C(=O)N(C)C[C@@H]1O2
23[16.7 µM],Cc1ccc(S(=O)(=O)Nc2ccc3c(c2)C(=O)N([C@H](C)CO)C[C@@H](C)[C@@H](CN(C)Cc2ccc(C(F)(F)F)cc2)O3)cc1
-12,O=C(N[C@H](Cc1ccccc1)C(=O)NCC1CCCO1)[C@H]1O[C@@H](n2ccc(=O)[nH]c2=O)[C@H](O)[C@@H]1O (some centres not stated)
5[16.7 µM],Cc1ccc(-c2ccc3c(c2)O[C@H](CN(C)C(=O)C2CCCCC2)[C@@H](C)CN([C@@H](C)CO)S3(=O)=O)cc1
-47[16.7 µM],C[C@H]1CN([C@@H](C)CO)C(=O)Cc2cc(NS(=O)(=O)c3ccc(Cl)cc3)ccc2O[C@H]1CN(C)C(=O)Nc1ccc2c(c1)OCO2
?,CC(=O)C1=C(C)N(Cc2ccc(F)cc2)C(=S)NC1c1ccc(Cl)cc1 (configuration not stated)
-6[16.7 µM],C[C@@H]1CCCCO[C@@H](CN(C)C)[C@H](C)CN([C@H](C)CO)C(=O)c2cc(NC(=O)C3CCCCC3)ccc2O1
21,CCCCN1CC(COCc2ccccc2)Oc2cccc(Sc3ccc(OC)c(OC)c3)c2S1(=O)=O (configuration not stated)
-25[16.7 µM],C[C@@H]1CN([C@@H](C)CO)C(=O)c2cccc(NS(=O)(=O)c3ccccc3)c2O[C@H]1CN(C)S(=O)(=O)c1cccs1
-34[16.7 µM],CCc1nc(N2[C@@H](C#N)[C@@H](c3ccccc3-c3ccc(F)cc3)[C@@H]2CO)sc1C
3[16.7 µM],O=C(C[C@@H]1CC[C@@H]2[C@H](COC[C@H](O)CN2C(=O)c2cc(Cl)cc(Cl)c2)O1)N1CCc2ccccc2C1
-46[16.7 µM],CC(C)NC(=O)Nc1ccc2c(c1)C(=O)N([C@@H](C)CO)C[C@H](C)[C@H](CN(C)CC1CCCCC1)OCCCC[C@H](C)O2
8[16.7 µM],O=C(O)[C@H]1[C@H](CO)[C@H]2Cn3c(cccc3=O)[C@H]2N1C(=O)NC1CCCC1
32[16.7 µM],C[C@@H](NC(=O)C[C@@H]1CC[C@H]2[C@H](COc3ccc(NS(=O)(=O)c4ccc(Cl)cc4)cc3C(=O)N2C)O1)c1ccccc1
10[16.7 µM],COc1cccc(CN(C)C[C@H]2OCc3ccccc3-c3ccccc3C(=O)N([C@H](C)CO)C[C@@H]2C)c1
22,COc1cccc(CNS(=O)(=O)c2cc(Br)ccc2Br)c1OC
18[16.7 µM],C[C@H](CO)N1C[C@H](C)[C@H](CN(C)Cc2ccc(F)cc2)Oc2ncc(C#Cc3ccccc3)cc2C1=O
-1[16.7 µM],CO[C@H]1CN(C)C(=O)c2ccc(NC(=O)c3ccc4c(c3)OCO4)cc2OC[C@@H](C)N(CCC(F)(F)F)C[C@H]1C
18[16.7 µM],CO[C@H]1CC[C@H]2CCN(C)C(=O)[C@@H](C)[C@@H](OC)CN(C)C(=O)c3cccc(C#N)c3OC[C@@H]1O2
-15[16.7 µM],CCCC(=O)Nc1ccc2c(c1)C(=O)N(C)C[C@H](OC)[C@H](C)CN(CCC(F)(F)F)[C@@H](C)CO2
-63[16.7 µM],COc1cccc(NC(=O)N(C)C[C@H]2Oc3ncc(C#Cc4ccncc4)cc3C(=O)N([C@@H](C)CO)C[C@@H]2C)c1
-19[16.7 µM],C=C[C@H](OC)[C@@H](O)c1ccc(OC)c(O)c1
6[16.7 µM],CN(C)C(=O)c1cccc(-c2cccc(-c3nc(C(=O)NC4CCCCC4)cc4c3[C@@H](CCO)N([S@](=O)C(C)(C)C)C4)c2)c1

Structures above containing a cyano group (3):
Env fusion inh,structure
-6[16.7 µM],CO[C@@H]1CC[C@@H]2CCOc3c(C#N)cccc3C(=O)N(C)[C@H](C)C(=O)N(C)C[C@@H]1O2
-34[16.7 µM],CCc1nc(N2[C@@H](C#N)[C@@H](c3ccccc3-c3ccc(F)cc3)[C@@H]2CO)sc1C
18[16.7 µM],CO[C@H]1CC[C@H]2CCN(C)C(=O)[C@@H](C)[C@@H](OC)CN(C)C(=O)c3cccc(C#N)c3OC[C@@H]1O2

Later entries.
Env fusion inh,structure
3[16.7 µM],CN(C)C(=O)C[C@@H]1C[C@@H]2c3cc(NC(=O)CC4CC4)ccc3O[C@@H]2[C@H](CO)O1
12,COC(=O)N1C[C@H](OCc2cn(-c3cc(Cl)cc(Cl)c3)nn2)[C@H](OCc2cn(-c3cc(Cl)cc(Cl)c3)nn2)C[C@@H]1c1ccccc1Br
19[16.7 µM],CNC[C@@H]1OCCCC[C@@H](C)Oc2ccc(NC(=O)Nc3ccc(F)cc3)cc2C(=O)N([C@H](C)CO)C[C@H]1C
3[16.7 µM],O=C([C@@H]1[C@@H](CO)[C@@H]2Cn3c(ccc(C4=CCCC4)c3=O)[C@H]1N2C(=O)c1ccncc1)N1CCOCC1
8[16.7 µM],C[C@@H]1CCCCO[C@@H](CN(C)CC2CC2)[C@H](C)CN([C@@H](C)CO)C(=O)c2cc(NS(C)(=O)=O)ccc2O1
-16[16.7 µM],CN(C)CCCNC(=O)C[C@H]1CC[C@@H]2[C@@H](COc3ccc(NC(=O)NC4CCCC4)cc3C(=O)N2C)O1
4[16.7 µM],CO[C@@H]1CN(C)C(=O)c2cc(NC(=O)C3CCCCC3)ccc2OC[C@H](C)NC[C@@H]1C
31,NCc1ccc(OCCCN2CCC(C(O)(C3=CCCC3)c3ccccc3)CC2)cc1 (configuration not stated)
-4[16.7 µM],COc1cccc(CNC(=O)c2cc3c(c(-c4cccc(-c5cccc(C#N)c5)c4)n2)[C@@H](CCO)N([S@](=O)C(C)(C)C)C3)c1
-9[16.7 µM],C[C@H]1CN([C@@H](C)CO)C(=O)Cc2cc(NC(=O)Nc3ccc(F)cc3)ccc2O[C@@H]1CN(C)S(=O)(=O)c1cn(C)cn1
21[16.7 µM],C[C@H](CO)N1C[C@H](C)[C@H](CN(C)S(=O)(=O)c2cccs2)Oc2ccc(NS(=O)(=O)c3cccs3)cc2CC1=O
13[16.7 µM],COc1cccc(C(=O)Nc2ccc3c(c2)C(=O)N(C)C[C@H](OC)[C@H](C)CN(C(C)=O)[C@H](C)CO3)c1
-10[16.7 µM],CN1C(=O)c2cc(NC(=O)Nc3ccccc3Cl)ccc2OC[C@H]2O[C@@H](CC(=O)NCCCN3CCOCC3)CC[C@H]21
18[16.7 µM],C[C@@H]1CN([C@H](C)CO)C(=O)c2cc(NC(=O)C3CCCCC3)ccc2O[C@@H](C)CCCCO[C@H]1CN(C)C(=O)CCC(F)(F)F
11[16.7 µM],CCNC(=O)C[C@@H]1CC[C@H]2[C@@H](COC[C@@H](O)CN2Cc2ccncc2)O1
20[16.7 µM],CO[C@H]1CN(C)C(=O)c2cc(NC(=O)C3CC3)ccc2OC[C@H](C)N(CCC(F)(F)F)C[C@H]1C
-17[16.7 µM],C[C@@H]1CN([C@@H](C)CO)C(=O)CCCn2cc(nn2)CO[C@@H]1CN(C)C(=O)c1ccc(N2CCN(C)CC2)cc1
-22[16.7 µM],COc1cccc(CNC(=O)c2cc3c(c(-c4cccc(-c5ccc(C#N)cc5)c4)n2)[C@H](CCO)N([S@@](=O)C(C)(C)C)C3)c1
-14[16.7 µM],O=C(C[C@H]1CC[C@@H]2[C@H](COC[C@@H](O)CN2C(=O)Nc2ccc(Cl)cc2)O1)NCCc1ccncc1
-3,COc1cccc(-c2cccc3c4c([nH]c23)[C@@H]2C[C@H]3[C@@H](C(=O)N2CC4)[C@H](C)ON3C)c1
-7[16.7 µM],C[C@@H]1CN([C@H](C)CO)C(=O)Cc2cc(NC(=O)Nc3cccc4ccccc34)ccc2O[C@H]1CN(C)Cc1ccc(-c2ccccc2)cc1

This is a subset, so the mix of outcomes need not match the whole.
